# Screening data from PubChem.
# MenB inh – Mtb MenB enzyme inhibition | hit rate 0.43% among 100,000 | MenB enzyme assay, absorbance read-out; some hits fall short of the stated cut | inhibition, %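 (about 12 µg/mL by stock and volumes)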;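 active means mean of two replicates above 30%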;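 further: 0% = no compound and 100% = wells with inactive enzyme; the first replicate is given; strong numbers were not always called active; inactives centre near -10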
# Target sequence (P9WNP5 whole entry, looked up): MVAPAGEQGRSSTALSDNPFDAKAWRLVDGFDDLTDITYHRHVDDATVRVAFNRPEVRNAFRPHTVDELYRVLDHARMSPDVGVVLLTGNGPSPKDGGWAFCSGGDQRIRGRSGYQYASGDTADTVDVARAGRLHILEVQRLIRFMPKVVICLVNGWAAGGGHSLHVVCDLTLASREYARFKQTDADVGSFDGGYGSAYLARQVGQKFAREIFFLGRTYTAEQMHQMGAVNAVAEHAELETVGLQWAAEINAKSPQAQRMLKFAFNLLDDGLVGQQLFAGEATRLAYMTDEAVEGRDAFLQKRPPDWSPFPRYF
# Polio RdRp inh – poliovirus RNA polymerase inhibition; P03300; poliovirus polymerase elongation, fluorescence polarization; stronger effect = lower value; % elongation, % (compound at 16.7 µg/mL); hit rate 0.66% among 150,000; in the data active means % elongation below about 90%; further: some results filed as inactive read as strong as hits
# Target sequence (P03300 1749-2209 limits assumed): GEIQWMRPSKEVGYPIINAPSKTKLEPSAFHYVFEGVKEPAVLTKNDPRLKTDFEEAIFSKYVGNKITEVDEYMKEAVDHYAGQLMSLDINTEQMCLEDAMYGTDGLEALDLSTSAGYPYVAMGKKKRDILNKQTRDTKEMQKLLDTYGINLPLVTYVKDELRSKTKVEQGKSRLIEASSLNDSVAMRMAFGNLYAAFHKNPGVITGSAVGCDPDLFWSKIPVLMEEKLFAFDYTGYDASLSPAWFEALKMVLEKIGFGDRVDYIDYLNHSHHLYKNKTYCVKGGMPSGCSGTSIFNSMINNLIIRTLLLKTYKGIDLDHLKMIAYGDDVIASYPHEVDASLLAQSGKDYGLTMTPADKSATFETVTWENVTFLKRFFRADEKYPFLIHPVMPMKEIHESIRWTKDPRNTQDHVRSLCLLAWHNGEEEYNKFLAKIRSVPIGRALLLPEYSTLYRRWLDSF
# MbtI inh – inhibitors of Mycobacterium tuberculosis siderophore enzyme MbtI; P9WFX0; purified MbtI enzyme, fluorescence intensity read-out; inhibition, %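 (about 17 µg/mL by stock and volumes)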; hit rate 0.89% among 100,000; AID 493033;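 active means above 50% in both replicates, above 80% if mildly self-fluorescent; inactive means the rest, strongly fluorescent compounds included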;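 further: 0% = mean of negative and 100% = mean of positive controls; one replicate is shown; some compounds called inactive have numbers as strong as hits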
# Polio RdRp inh intensity – recorded beside Polio RdRp inh, whose call it bears; % elongation; measured here: total intensity read-out; formula for this scale not given here;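 total fluorescence in place of polarization; lower means less elongation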
# Starred values were filed as active, the others as inactive; . = not tested or not shown.
cpd	Compound	MbtI inh	Polio RdRp inh
1	C=CC1CN2CCC1CC2C(OC(=O)CCC(=O)O)c1ccnc2ccccc12 (configuration not stated)	8	99
2	CC(C)COc1ccc2c3c(c(=O)oc2c1)CCCC3	68	102
3	O=C(Nc1ccc(Oc2ncnc3sc4c(c23)CCC4)cc1)c1ccco1	3	99
4	COc1ccc(C2(NC(=O)c3ccc(Cn4cc(Cl)cn4)o3)CCCCC2)cc1	-6	104
5	Fc1ccc(N=Cc2ccsc2)cc1F	-3	101
6	Clc1ncnc2ccsc12	39	97
7	CCCSc1nnc2c3ccccc3n(Cc3ccccc3)c2n1	.	108
8	CC(=O)OCC(=O)[C@@]1(O)CCC2C3CCC4=CC(=O)CC[C@]4(C)[C@@]3(F)[C@@H](O)C[C@@]21C (some centres not stated)	-10	99
9	CCC(=O)c1ccccc1OCCCn1cnc2ccccc2c1=O	-8	102
10	CCOC(=O)C(=O)c1c(O)[nH]c2ccccc12	0	.

cpd	MenB inh	Polio RdRp inh intensity
1	-11	102
2	-9	107
3	-23	101
4	-35	99
5	.	99
6	-10	100
7	-7	112
8	-3	101
9	6	105
10	2	.

# Going on with the list:
cpd	Compound	MbtI inh	Polio RdRp inh
11	c1ccc(-n2cc(-c3nc4ccccc4[nH]3)c(-c3ccco3)n2)cc1	-94	104
12	O=C(COC(=O)c1ccc(CN2CCCC2=O)cc1)Nc1ccc(F)cc1	-6	.
13	CN1CCN(S(=O)(=O)c2ccc(C(N)=O)cc2)CC1	-13	101
14	COc1cccc(NC(=O)CN(C)C(=O)C2CC3C=CC2C3)c1 (configuration not stated)	17	105
15	CCOc1ccc(NC(=O)Cn2ccc3c(OCC(=O)OC)cccc3c2=O)cc1	119	100
16	O=C(NC1CCN(C(=S)NCc2ccco2)CC1)NC12CC3CC(CC(C3)C1)C2	1	101
17	N#C/C(=C\c1ccsc1)S(=O)(=O)c1ccc(F)cc1	-9	104
18	CCC/C=C/C(=O)Nc1ccc(C)cc1	17	104
19	O=C(O)/C=C/c1ccc(N2C(=O)CC(Cc3ccccc3)C2=O)cc1 (configuration not stated)	6	104
20	Cn1c(NC(=O)c2cc(F)c(F)cc2Cl)nc2ccccc21	.	99

cpd	MenB inh	Polio RdRp inh intensity
11	-16	108
12	-3	.
13	-5	102
14	11	105
15	6	103
16	-55	102
17	.	107
18	-26	105
19	7	98
20	-12	98

# Next structures
cpd	Compound	MbtI inh	Polio RdRp inh
21	CCOC(=O)N1CCN(CC(O)COc2cc(C)cc(C)c2)CC1 (configuration not stated)	0	102
22	O=C(O)C1=NN(c2ccccc2)C(=O)C1	22	101
23	CCOC(=O)C1CCN(C2CC(=O)N(c3ccc(NC(C)=O)cc3)C2=O)CC1 (configuration not stated)	10	102
24	C=CCn1c(O)c(C2=c3ccccc3=NC2=O)sc1=S	8	102
25	CCc1ccc(CN(C)C(=O)c2ccc3c(c2)OCO3)cc1	2	103
26	CCSc1nnc(NC(=O)CN2C(=O)C3CC=CCC3C2=O)s1 (configuration not stated)	2	100
27	CSc1ncc(C(=O)NCc2ccco2)c(C(F)(F)F)n1	-8	102
28	Cc1ccc(-n2nc(C(F)(F)F)cc2-c2cccs2)cc1	0	101
29	Cc1nc(COC(=O)c2c(C)nn(-c3ccccc3)c2C)cs1	11	97
30	Nc1ncc(C2(O)C(=O)Nc3c(Br)cc(F)cc32)s1 (configuration not stated)	-5	95

cpd	MenB inh	Polio RdRp inh intensity
21	-18	99
22	-36	101
23	17	103
24	-27	105
25	-11	108
26	-17	104
27	-15	103
28	22	95
29	-3	104
30	-21	99

# Going on with the list:
cpd	Compound	MbtI inh	Polio RdRp inh
31	Cc1ccc2[nH]c(C)c(CN(C)C)c(=O)c2c1	15	103
32	O=C(Cn1c(C(=O)N2CCN(C(=O)c3ccco3)CC2)cc2sccc21)c1ccccc1	2	101
33	CC1=NN(c2ccc(N)cc2)C(=O)C1	19	101
34	CCCN(Cc1nnc(-c2ccccc2Cl)o1)C(=O)c1c(F)cccc1Cl	-5	108
35	COc1ccc(CCNS(=O)(=O)N(C)C)cc1	-16	99
36	Cc1nc(-c2cccc(NS(=O)(=O)c3cccs3)c2)cs1	17	105
37	O=C1CCCN1CP(=O)(O)CCc1ccccc1	-24	99
38	CCCC(=O)c1ccc(N=Cc2ccc(Cl)cc2Cl)cc1	.	102
39	Cc1cc(N2CC(C)CC(C)C2)nc2ccc(NC(=O)CCC(=O)NCc3ccco3)cc12 (configuration not stated)	76	103
40	COc1ccc(OC)c(NC(=O)C2C3C=CC(C3)C2C(=O)NCc2cccnc2)c1 (configuration not stated)	-5	102

cpd	MenB inh	Polio RdRp inh intensity
31	15	100
32	-5	103
33	-19	101
34	-10	111
35	3	104
36	4	102
37	-6	100
38	-10	113
39	-25	103
40	29	102

# Following part
cpd	Compound	MbtI inh	Polio RdRp inh
41	Cc1csc(=Nc2ccccc2)n1C1CCCC1	-6	107
42	COC(=O)CN1C(=O)COc2ccc(C)cc21	.	105
43	CCOC(=O)C1=NNC2C(=O)NC(=O)C12 (configuration not stated)	12	99
44	CCc1cccc(C)c1NC(=O)N(Cc1ccccc1)C(C)C	1	109
45	O=C(c1ccc2ccccc2n1)N1CCOCC1	4	101
46	Cc1ccc(N(C(=O)c2cccc(F)c2)C2C=CS(=O)(=O)C2)cc1 (configuration not stated)	1	100
47	NS(=O)(=O)c1ccc(CCNC(=O)c2ccccc2C(F)(F)F)cc1	0	103
48	Cc1ccc(/C(O)=C/c2nc3ccccc3[nH]c2=O)cc1C	-5	89
49	O=C(Nc1ccccc1C(=O)N1CCCCCC1)c1cccc(S(=O)(=O)N2CCCCCC2)c1	-1	99
50	Cc1cc2c(=O)n(CC(=O)Nc3ccccc3)cnc2s1	-12	104

cpd	MenB inh	Polio RdRp inh intensity
41	-3	104
42	-19	110
43	-2	103
44	5	112
45	-8	98
46	1	100
47	.	104
48	-53	166
49	-26	100
50	-26	103

# The list goes on.
cpd	Compound	MbtI inh	Polio RdRp inh
51	CC(C)NC(=S)Nc1ccccn1	2	105
52	O=C(CC(c1ccccc1)c1ccccc1)Nc1ncn[nH]1	.	108
53	CC(=O)Nc1cccc(-c2nnc3n2CC(C)S3)c1 (configuration not stated)	-8	100
54	OC(c1cccc(OCc2ccccc2)c1)c1nnc(-c2ccccc2)o1 (configuration not stated)	-7	99
55	CCOC(=O)c1c(C)oc2ncnc(N3CCOCC3)c12	-10	102
56	COc1ccc(CN2CC(C(=O)NCCc3ccccc3)CC2=O)cc1 (configuration not stated)	-4	100
57	CCNc1nc(NCC)nc(C(N)=O)n1	7	100
58	c1ccc(C2=NC3(CCCC3)N=C2c2ccccc2)cc1	10	102
59	O=C(CSCc1c[nH]c2ccccc12)Nc1ccc2ccccc2c1	.	102
60	COc1ccc(N=Cc2ccccc2F)cc1	2	101

cpd	MenB inh	Polio RdRp inh intensity
51	-5	108
52	-8	106
53	-1	100
54	-27	97
55	-38	103
56	-29	100
57	10	101
58	3	101
59	-19	107
60	.	91

# Next part
cpd	Compound	MbtI inh	Polio RdRp inh
61	N/C(=N\OC(=O)Nc1ccccc1)c1ccno1	7	102
62	SCCCCOc1ccccc1Br	-5	102
63	NNC(=O)Cc1nn2c(C3CCCCC3)nnc2s1	70*	99
64	COc1cccc(N2CCN(S(=O)(=O)c3ccc4c(c3)N(C(C)=O)CCO4)CC2)c1	-20	100
65	Cn1nnnc1SCC(=O)NC1CC1	-11	105
66	CSc1ccccc1NC(=O)CN(C)C(=O)c1ccc(S(=O)(=O)N(C)C)cc1	-13	.
67	O=C(CN1CC(=O)Oc2ccccc21)Nc1ccc(O)cc1	1	107
68	CC1=CC(C)(C)N(Cc2ccccc2)c2ccccc21	.	107
69	S=c1[nH]n(Cc2ccccc2)c(=NCc2ccccc2)s1	65*	95
70	COc1ccccc1NC(=O)C(C)OC(=O)c1ccc(NS(=O)(=O)c2ccc3[nH]c(=O)[nH]c3c2)cc1 (configuration not stated)	-70	103

cpd	MenB inh	Polio RdRp inh intensity
61	-4	95
62	-2	106
63	-20	85
64	-19	104
65	-1	112
66	-19	.
67	-76	112
68	-23	103
69	.	93
70	-14	107

# The list goes on.
cpd	Compound	MbtI inh	Polio RdRp inh
71	COc1ccc(NS(=O)(=O)c2ccc3c(c2)CCO3)cc1	-2	103
72	COc1ccc(-c2c(C)c3ccc(O)cc3oc2=O)cc1OC	105	103
73	O=C(CNC(=O)c1cccs1)NCc1cccs1	-7	98
74	CCN1C(=O)c2ccccc2Sc2ccc(C(=O)NCCc3ccccc3)cc21	4	99
75	O=C(NCCCn1ccnc1)c1ccc(Oc2ccccc2)cc1	2	101
76	O=C(COC(=O)/C=C/c1ccc(Br)o1)Nc1ccccc1	-4	104
77	S=c1cc(-c2ccccc2)oc(-c2ccccc2)c1	18	100
78	COc1cccc(NC(=O)CSc2cccc[n+]2[O-])c1	0	107
79	O=c1cc(CO)oc(C(Nc2ccccn2)c2ccccc2O)c1O (configuration not stated)	-10	104
80	CCCCN(CC)S(=O)(=O)c1c(C)[nH]c(=O)[nH]c1=O	-3	102

cpd	MenB inh	Polio RdRp inh intensity
71	11	94
72	-25	104
73	-9	97
74	-11	102
75	.	102
76	.	109
77	-73	104
78	-11	110
79	-28	105
80	-15	101

# (cont.)
cpd	Compound	MbtI inh	Polio RdRp inh
81	Cc1c(C(=O)O)oc2ccc3c(c12)C(O)CC1(CCCC1)O3 (configuration not stated)	88	102
82	COC(=O)c1cc(NC(=O)c2c(-c3ccccc3)noc2C)cc(C(=O)OC)c1	-1	106
83	CCCCC1=NN2C(=N)/C(=C\c3cccn3-c3ccc(OC)c(Cl)c3)C(=O)N=C2S1	-8	101
84	O=C1c2ccccc2C(=O)N1CCc1nc(=S)[nH][nH]1	.	99
85	CCC(C)NC(=O)C1CCC(=O)N(c2ccc(OC)cc2)C1c1ccc(OC)c(OC)c1 (configuration not stated)	1	101
86	O=C(Nc1ccc(O)c(-c2nc3ccccc3o2)c1)C1(c2ccccc2)CCCC1	-4	100
87	Cc1ccc(-c2csc(NC(=O)CSC(C)(C)C)n2)o1	34	99
88	Cc1ccc(C2N=C3C=C(NC(=O)c4cccnc4)C=CC3O2)cc1C (configuration not stated)	.	108
89	O=C(OCC1CC1)c1sc2ccccc2c1Cl	-6	101
90	C[C@@H]1C[C@H]2[C@@H]3C[C@H](F)C4=CC(=O)C=C[C@]4(C)[C@@]3(F)[C@@H](O)C[C@]2(C)[C@@]1(O)C(=O)CO	-4	98
91	O=Nc1c(O)n(CC(=O)Nc2ccccc2)c2ccccc12	19	100

cpd	MenB inh	Polio RdRp inh intensity
81	15	99
82	-21	101
83	3	103
84	-32	100
85	15	104
86	-17	96
87	-28	97
88	-31	112
89	-1	102
90	5	101
91	-4	101
